Screening results (PubChem)
Vif A3G: HIV-1 Vif–A3G interaction blockers – biochemical, TR-FRET, GST-Vif 1-94, biotin-A3G peptide, dose response retest, primary screen (AID 1117319) | 260,000 tested, 0.57% active | TR-FRET GST-Vif / biotin-A3G peptide binding; higher % means a stronger effect; test concentration not given here; strong numbers were not always called active | inhibition, %, or IC50 in µM where a hit was titrated;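 active = above the screen mean plus three standard deviations and confirmed in dose response; inconclusive = results disagree or hit not tested in dose response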;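 also: Vif residues 1-94 fused to GST binding biotinylated APOBEC3G peptide 110-148; 0% = full assay without inhibitor and 100% = GST in place of GST-Vif; retest series ran down from 100 µM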
ALR H2O2 inh: blocks human ALR sulfhydryl oxidase activity; 290,000 tested, 3.8% active; P55789; purified ALR, DTT oxidation, H2O2 HRP-luminol luminescence; inhibition, % (test concentration not listed);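 active = mean and each replicate at 75% or more; inconclusive = only one of the two met; inactive = neither met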;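 also: stock transfer was 7.5 nL into about 7.5 µL; 0% = neutral wells and 100% = wells with inactivated enzyme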
Target sequence (P55789 whole entry, looked up): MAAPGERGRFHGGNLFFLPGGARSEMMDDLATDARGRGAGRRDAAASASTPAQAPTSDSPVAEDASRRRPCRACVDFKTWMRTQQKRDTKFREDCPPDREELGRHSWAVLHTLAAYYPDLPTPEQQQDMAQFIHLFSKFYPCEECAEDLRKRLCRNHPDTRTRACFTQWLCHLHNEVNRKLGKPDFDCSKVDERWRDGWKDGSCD
HNF4A DNA FP: change in binding of human HNF4 alpha to DNA | AID 1224865 | activity change, % at 10 µM | 360,000 tested, 0.3% active | HNF4a-FITC DNA binding, fluorescence polarization, 1 h; in the data active = activity change above about 30%, passing the limit was not always enough;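 also: controls were the assay level and a saturating level of protein; the project sought stronger binding though the title names inhibitors; some compounds called inactive have numbers as strong as hits; positive values seem to mean higher polarization but the record does not say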
Target sequence (P41235 whole entry, looked up): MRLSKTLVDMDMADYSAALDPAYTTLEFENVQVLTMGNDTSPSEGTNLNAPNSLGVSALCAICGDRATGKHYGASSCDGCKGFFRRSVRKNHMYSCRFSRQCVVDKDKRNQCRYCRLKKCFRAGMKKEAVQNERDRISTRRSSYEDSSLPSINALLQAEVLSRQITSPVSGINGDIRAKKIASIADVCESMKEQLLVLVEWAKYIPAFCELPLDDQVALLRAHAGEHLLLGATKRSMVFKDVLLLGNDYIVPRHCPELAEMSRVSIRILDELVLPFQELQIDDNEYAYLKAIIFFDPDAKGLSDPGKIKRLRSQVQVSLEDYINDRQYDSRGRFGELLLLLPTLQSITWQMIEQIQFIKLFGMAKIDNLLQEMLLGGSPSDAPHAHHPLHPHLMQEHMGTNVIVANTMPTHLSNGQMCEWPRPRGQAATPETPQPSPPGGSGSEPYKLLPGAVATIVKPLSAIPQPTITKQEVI
Beta2AR agonist: human beta-2 adrenergic receptor agonism by FAP; response, % (test concentration not listed); 340,000 tested, 0.43% active; Am2.2-beta2AR cells, FAP receptor internalization, flow cytometry; reference of the scale not given here; P07550;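 active = response above a set limit, near 3 SD of response in nonfluorescent compounds, cut at about 42% in these data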;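 also: stock transfer was 100 nL into about 11 µL; a reference agonist was the positive control; negative values mostly stem from fluorescent compounds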
Target sequence (P07550 whole entry, looked up): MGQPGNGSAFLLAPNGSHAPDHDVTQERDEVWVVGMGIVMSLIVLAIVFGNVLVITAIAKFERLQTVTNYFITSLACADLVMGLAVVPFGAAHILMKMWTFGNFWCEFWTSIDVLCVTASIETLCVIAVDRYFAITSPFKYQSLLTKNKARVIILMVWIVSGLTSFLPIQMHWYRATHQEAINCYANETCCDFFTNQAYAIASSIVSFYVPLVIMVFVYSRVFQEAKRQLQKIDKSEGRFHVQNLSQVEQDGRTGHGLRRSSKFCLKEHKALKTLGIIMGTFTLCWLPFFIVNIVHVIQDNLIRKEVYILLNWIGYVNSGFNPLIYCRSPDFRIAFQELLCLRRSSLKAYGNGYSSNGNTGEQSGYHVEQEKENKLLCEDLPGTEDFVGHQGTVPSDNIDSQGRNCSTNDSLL
RanGTP-Imp inh: inhibitors of RanGTP-importin-beta interaction, primary screen, biochemical, FRET, CFP-Ran, YFP-importin-beta, homogeneous; cell-free CFP-Ran/YFP-importin-beta FRET ratio; inhibition, % (test concentration not listed); 300,000 tested, 1.1% active;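 active = most replicates above 15%; inconclusive = exactly half above 15%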;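 also: 0% = DMSO wells and 100% = Ran loaded with GDP instead of GTP; wells of about 40 µL received 100 nL stock; the first replicate is given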
Calb FLC: C. albicans growth modulation with fluconazole | 300,000 tested, 0.57% active | AID 1979 | growth inhibition, % (test concentration not listed) | C. albicans CaCi-2 (fluconazole-resistant clinical isolate) + fluconazole, Alamar Blue growth, 48 h;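 active = most replicates above 75%; inconclusive = exactly half above 75%; inactive = most below 75%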;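 also: all wells also contain fluconazole at 8 µg/ml as a sub-toxic cotreatment; 0% = median of DMSO wells and 100% = median of geldanamycin control wells; wells of about 8 µL received 7.5 nL stock; the first replicate is given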
LANA-H2B inh: blocks KSHV LANA binding to histone H2A/H2B. Q9QR71. cell-free LANA-H2A/H2B peptide, fluorescence polarization. AID 2629. inhibition, % (test concentration not listed). 320,000 tested, 0.6% active; in the data active = inhibition mostly above about 10%, no sharp cut-off; inactive = mostly below about 6.7%;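 also: stock transfer was 7.5 nL into about 10 µL; 0% = median of vehicle wells and 100% = median of positive control wells; one replicate is shown; the record names a cut of 25% in any replicate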
Starred values were filed as active, the others as inactive; ? = inconclusive; . = not tested or not shown.

SMILES | Vif A3G | ALR H2O2 inh | HNF4A DNA FP | Beta2AR agonist | RanGTP-Imp inh | Calb FLC | LANA-H2B inh
Cc1nn(CC(=O)NC(C)c2ccccc2)c(=O)c2ccccc12 (stereo not given) | -1% | -6 | 0.8 | 19 | 0.3 | 9 | -1.5
CC1CC(Nc2cccc(O)c2)=CC(=O)O1 (stereo not given) | 5% | -8 | 0.2 | -5 | ? | 3 | -3.9
CC(OC(=O)Cc1n[nH]c(=O)c2ccccc12)C(=O)Nc1ccc(Cl)cn1 (stereo not given) | 25% | 2 | 0.8 | 5 | -0.4 | 2 | 4.7
O=S(=O)(c1ccc(Cl)s1)N1CCN(c2ncccn2)CC1 | -6% | -4 | -1.5 | -16 | 4.5 | 19 | 5.5
CNC(=O)CNC(=O)Nc1ccc(Cl)c(Cl)c1 | 2% | -4 | 0.6 | 1 | 1.6 | -16 | -1.1
O=C(Nc1ccccc1C(=O)NCc1ccccc1)c1ccco1 | 10% | -2 | -0.1 | 5 | -0.6 | 9 | 2.5
COc1ccc(-c2csc3ncnc(NCCO)c23)cc1 | . | 1 | 0.1 | 4 | 1.5 | -2 | 14
CCN1C(=O)[C@H]2[C@@H](c3ccc(-c4ccc(OC)cc4)c(OC)c3)N[C@@](CC(C)C)(C(=O)OC)[C@H]2C1=O | . | 15 | -5.4 | 8 | . | . | -0.8
O=C1c2cccc3cccc(c23)C(=O)N1Cc1cccnc1 | 2% | -5 | -3.0 | -1 | ? | 0 | -2.2
N=C1/C(=C/c2cccn2-c2ccc([N+](=O)[O-])cc2)C(=O)N=C2SC=CN12 | . | 11 | -2.1 | -4 | -5.2 | 60 | -1.8
C[C@H](CO)N1C[C@H](C)[C@@H](CN(C)Cc2ccc(Cl)c(Cl)c2)Oc2c(NS(=O)(=O)c3ccc(F)cc3)cccc2C1=O | . | 3 | 3.6 | -5 | . | . | 4.2
O=C(CSc1nnc(-c2ccccc2)o1)N1CCN(c2ccccc2)CC1 | 2% | -1 | 0.0 | 3 | 3.6 | 70 | -0.6
Cc1ccc(CNC(=O)CCS(=O)(=O)c2ccc3nc(C)sc3c2)cc1 | . | -7 | 1.8 | 2 | 1.2 | -7 | -2.3
O=C(Nc1cccc(F)c1)Nc1cnccn1 | -4% | 1 | -5.1 | -3 | 2.3 | 3 | 5.8
CCS(=O)(=O)c1ccc(-c2cccc(NC(=O)c3ccc(Br)o3)c2)nn1 | -5% | -8 | 2.9 | 0 | 2.1 | 3 | 2.1
O=C(COC(=O)Cn1[nH]c(=O)c2ccccc2c1=O)Nc1ncc(Cl)cc1Cl | 5% | . | -5.1 | 10 | . | . | .
COc1ccc2[nH]c(=O)c(CNC3CCCCC3)cc2c1 | 12% | -40 | 3.2 | 2 | -2.7 | 1 | -13
CC1CN(c2ccc([N+](=O)[O-])cc2F)CCN1C(=O)c1ccco1 (stereo not given) | . | 7 | -1.6 | -5 | -0.7 | -2 | -3.0
CC1CN(Cc2nc3ccccc3c(=O)[nH]2)CC(C)O1 (stereo not given) | 1% | -2 | -2.5 | -2 | 0.5 | -7 | -1.3
CCOc1ccc(N(CC(=O)Nc2cccc(OC)c2)S(C)(=O)=O)cc1 | . | 4 | 3.7 | -4 | 0.9 | -7 | 2.0
COc1ccc(-c2ccc(C(=S)N3CCN(C(C)=O)CC3)o2)cc1 | 17% | ? | -0.2 | -12 | -7.5 | 1 | 2.5
Cc1cc(=O)[nH]c(N/N=C/c2c(C)nn(-c3ccccc3Cl)c2Cl)n1 | 2% | 24 | -1.5 | 0 | -4.7 | 10 | -2.5
O=C(Nc1cccc(F)c1)/C(=C\c1ccco1)NC(=O)c1cccs1 | 11% | . | 5.2 | -4 | 2.1 | -3 | -0.3
Cc1nnc(CN(C)C(=O)c2cc(COc3ccc(F)cc3Cl)on2)o1 | . | 3 | 20 | 1 | -2.9 | 2 | -3.8
CC1Sc2ccc(S(=O)(=O)N3CCC(C(=O)N4CCN(C)CC4)CC3)cc2NC1=O (stereo not given) | . | -15 | 3.0 | 2 | 3.2 | -4 | 0.0
O=C(NC1CCCc2ccccc21)c1ccccc1 (stereo not given) | 3% | 39 | -0.1 | 1 | -0.1 | 3 | 0.0
CC(Cl)C(=O)N1c2ccccc2CCc2ccccc21 (stereo not given) | ? | -11 | 136 | -4 | -0.8 | -6 | 8.1
CC(=O)N/C(=C\c1ccccc1)C(=O)OC(C)C(=O)Nc1ccccc1F (stereo not given) | -1% | . | 3.3 | 2 | . | . | -6.2
CN(Cc1cc2ccccc2[nH]c1=O)S(C)(=O)=O | 4% | -6 | 2.8 | -1 | -1.1 | -31 | 0.0
COc1ccc(Cc2nnc(NC(=O)C(C)C)s2)cc1 | -3% | -7 | -0.5 | -3 | 4.0 | 1 | 2.6
CN(C(=O)c1ccc2c(c1)OCO2)C1(C)CCS(=O)(=O)C1 (stereo not given) | . | -2 | 0.0 | -1 | ? | 6 | 14*
O=C(c1cc(-c2ccccc2)on1)N1CCCCCC1 | . | -6 | -3.0 | -8 | 2.0 | 7 | 3.7
Cn1c(SCC(=O)N2CCc3ccccc32)nnc1C1CC1 | 3% | -1 | -2.6 | 6 | -2.3 | -23 | 0.3
O=C(c1cccnc1)N1c2ccccc2Sc2ccccc21 | -7% | -8 | 4.0 | 8 | 6.1 | 13 | -0.4
Cc1ccc(S(=O)(=O)N(C)C)cc1NC(=O)COC(=O)C1COc2ccccc2O1 (stereo not given) | . | 2 | 3.9 | -1 | -1.7 | -7 | 1.9
O=C(N/N=C/c1cccc(Br)c1)c1ccc(N2CCCC2=O)cc1 | . | 29 | 1.6 | 4 | -0.4 | 25 | 3.4
O=c1c2ccccc2nc(SCc2ccc([N+](=O)[O-])cc2)n1CCCO | . | 9 | -0.5 | -4 | 2.5 | 39 | 1.8
O=C(COC(=O)C1CC1)Nc1ccc(Cl)cc1Cl | . | 0 | 1.0 | -2 | . | . | -0.8
Cc1nnc(SCC(=O)N2CCCCC2)s1 | 10% | -12 | 1.2 | -7 | -2.4 | 4 | 4.4
O=C(CCC1CCCN(Cc2cccc3c2OCO3)C1)NCc1ccc(F)c(F)c1 (stereo not given) | 6% | 15 | 1.5 | 1 | -1.3 | -19 | 0.1
COc1cccc([C@@H]2CC=C(C(=O)O)[C@H](c3ccccc3F)N2S(=O)(=O)c2ccc(C)cc2)c1 | . | 3 | 0.6 | -5 | . | . | 1.1
Clc1cccc(-c2ccc(CNCCCN3CCOCC3)o2)c1 | . | -2 | 0.4 | 3 | 2.0 | 2 | -2.3
COCCNC(=S)N/N=C(\C)c1ccc(O)cc1 | -6% | 99* | 0.7 | 7 | 2.8 | 0 | 1.6
CCc1nnc(NC(=O)CSc2nnc(CNc3ccc(C)cc3)n2C)s1 | . | -25 | -0.9 | -3 | -5.0 | 22 | 3.0
Cc1ccc(COc2ccc3c(c2)OCO3)cc1 | . | 0 | -0.6 | -1 | -3.5 | 12 | 6.3
CCC(Sc1ccc2nnc(-c3ccc(F)cc3)n2n1)C(=O)OC (stereo not given) | 2% | -7 | 1.5 | -5 | 6.0 | 0 | 6.7
O=[N+]([O-])c1ccc(C=NNC(=S)NN=Cc2ccc([N+](=O)[O-])cc2)cc1 | -6% | . | -33 | 6 | . | . | .
CC(Sc1nnc(COc2ccc([N+](=O)[O-])cc2)n1-c1ccccc1)C(=O)O (stereo not given) | ? | 3 | 4.0 | 5 | 3.9 | -13 | 1.7
COc1cccc(-c2nnc(-c3ccc(C(F)(F)F)cc3)o2)c1 | 14% | -14 | 1.1 | -3 | 2.9 | 6 | 1.6
CCN(CC)S(=O)(=O)c1ccc(NC(=O)COc2cccc(-n3cnnn3)c2)cc1 | -8% | -6 | 1.9 | 4 | . | . | 4.3
CCN(CC)CCNC(=O)c1cn(C)c2ccc(S(=O)(=O)N(C)C3CCCCC3)cc2c1=O | -2% | 25 | 6.0 | 3 | 6.5 | -1 | -1.8
Cc1c(NC(=O)c2ccc(Cl)nc2)cccc1-c1nc2cccnc2s1 | -51% | -4 | -1.2 | -8 | -5.0 | -9 | -1.3
Cc1cc(C)cc(-n2nnc(C(=O)NCc3ccco3)c2N)c1 | 70% | 2 | -0.7 | -5 | 0.1 | -15 | 0.8
O=C(COC(=O)CCNS(=O)(=O)c1ccccc1)NNC(=O)c1ccccc1 | -9% | -3 | 2.2 | 9 | -1.5 | -6 | -3.5
COC(=O)C1C(=O)c2c([nH]c(C(=O)OCCSC)c2C)CC1C (stereo not given) | 1% | . | -0.1 | 2 | 0.7 | -1 | 0.7
Cc1ccc(NC(=O)/C(C#N)=C/c2ccc(C)s2)c(C)c1 | 5% | 1 | 63 | -19 | -84 | -10 | 1.0
O=C(COc1ccccc1)N1CCN(S(=O)(=O)Cc2ccccc2)CC1 | -6% | -7 | -5.2 | -2 | 2.8 | 1 | 4.1
CCOCCCn1c(=NC(=O)c2ccc(OC)c(OC)c2)c(C#N)cc2c(=O)n3cccc(C)c3nc21 | ? | -4 | . | . | 86* | 32 | -1.6
CSc1ccccc1NC(=O)CN(C)C(=O)c1ccc2c(c1)OCCO2 | . | 0 | -1.2 | -2 | 5.7 | 1 | 10
CCOc1ccc(S(=O)(=O)N2CCC(C(=O)N3CCOCC3)CC2)cc1C | . | -1 | -0.4 | -4 | ? | -8 | -1.2

(cont.)
SMILES | Vif A3G | ALR H2O2 inh | HNF4A DNA FP | Beta2AR agonist | RanGTP-Imp inh | Calb FLC | LANA-H2B inh
CCCS(=O)(=O)N1CCC(C(=O)Oc2ccc(OC)cc2)CC1 | . | -1 | 2.4 | -26 | 3.7 | 0 | -6.9
Cc1ccc(S(=O)(=O)NCc2ccccc2)cc1C(=O)N1CCN(S(=O)(=O)c2ccccc2)CC1 | -4% | . | -3.5 | -1 | . | . | .
COCCNC(=O)COC(=O)c1nsc(Cl)c1Cl | ? | 0 | -3.0 | 2 | 1.5 | 24 | 5.1
Cc1ccc(C(=O)Nc2ccccc2SCC2CSc3nc4ccccc4c(=O)n32)cc1 (stereo not given) | 2% | . | 3.0 | -1 | -4.9 | 3 | -2.6
CCN(c1cccc(C)c1)C(C(=O)Nc1ccc(OC)cc1)c1cc2c(cc1[N+](=O)[O-])OCO2 (stereo not given) | . | -63 | 2.8 | 0 | -1.2 | 11 | 1.6
Cc1ccc(C2=NS(=O)(=O)N(C)C(C(=O)N(C)C3CCCCC3)=C2)cc1 | . | . | 4.6 | -4 | ? | 2 | -2.4
Cc1ccc(SCCC(=O)NC(C(C)C)C(C)C)cc1 | 11% | 3 | -0.4 | 0 | . | . | -0.5
O=C(CCc1ccccc1)Nc1ccccc1[N+](=O)[O-] | . | -21 | 0.8 | -5 | 4.3 | -14 | -2.8
Cc1ccc(-c2csc(NC(=O)COc3ccc(N(C)S(=O)(=O)c4ccc(C)cc4)cc3)n2)cc1 | -5% | -11 | -6.8 | 1 | 3.6 | 11 | 1.3
CCOC(=O)c1cccc(S(=O)(=O)N(CCO)Cc2cc3cc(OC)c(OC)cc3[nH]c2=O)c1 | -1% | . | -0.7 | 8 | 0.2 | 19 | -1.3
Cc1cc(C(=O)O)ccc1N/C=C1\CCCC(C)C1=O (stereo not given) | 11% | 44 | 1.1 | 40 | 0.4 | -9 | -5.1
CCOc1ccccc1/C=N\Nc1cnn(Cc2ccccc2)c(=O)c1Cl | -7% | -2 | 1.0 | 2 | -3.4 | -3 | 5.9

An excerpt from above in order of formula weight, lowest first.
SMILES | Vif A3G | ALR H2O2 inh | HNF4A DNA FP | Beta2AR agonist | RanGTP-Imp inh | Calb FLC | LANA-H2B inh
O=C1c2cccc3cccc(c23)C(=O)N1Cc1cccnc1 | 2% | -5 | -3.0 | -1 | ? | 0 | -2.2
COc1ccc(-c2csc3ncnc(NCCO)c23)cc1 | . | 1 | 0.1 | 4 | 1.5 | -2 | 14
Cc1ccc(-c2csc(NC(=O)COc3ccc(N(C)S(=O)(=O)c4ccc(C)cc4)cc3)n2)cc1 | -5% | -11 | -6.8 | 1 | 3.6 | 11 | 1.3
